# NPYLR7 agonist: mosquito NPYLR7 agonism | HEK293T NPYLR7/Galpha15, GCaMP6s calcium fluorescence | activation, % at 10 µM | 270,000 compounds, 0.15% hits; in the data active = activation above about 40%;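 also: 0% = vehicle and 100% = reference agonist at the receptor; some compounds past the cut are filed as inactive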
# NPYLR7 agonist max-min: also measured in NPYLR7 agonist; calls as there; activation, %; measured here: Max-Min RFU normalised activation; some inactives read as strong as hits;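 span of the calcium signal over five minutes; 0% = vehicle and 100% = native peptide agonist; compound fluorescence can raise it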
# * = called active by the depositor; & = joins results of further samples. An excerpt; the hit share may differ from the screen's.
entry | SMILES | NPYLR7 agonist | NPYLR7 agonist max-min
1 | CCOC(=O)c1[nH]ncc1CN1CCCC(Cc2ccccc2C)(C(=O)OCC)C1 (stereo not given) | 5&-7 | 3&-11
2 | COc1cc(C(=O)NC(C(=O)N2CCc3sccc3C2)C(C)C)cc(OC)c1OC (stereo not given) | 5 | 5
3 | Cc1cn2c3c(=O)n(Cc4cccc(Cl)c4)c(=O)n(C)c3nc2n1CCCN1CCOCC1 | -1 | 12
4 | COc1ccccc1/C=C/C=C1\N=C(c2ccccc2Cl)OC1=O | 1 | -4
5 | O=C(NNC(=O)c1cccc(S(=O)(=O)Nc2ccc(Cl)cc2)c1)NC1CCCCC1 | 3 | 1
6 | O=C(Cc1ccc2c(c1)CCC2)NCCc1ccc2c(c1)OCCO2 | -1 | -2
7 | O=C(c1ccccc1)n1sc(=O)c2ccccc21 | 2 | 1
8 | COc1ccc(Br)cc1S(=O)(=O)N(C)CC(=O)NCc1ccco1 | 5 | 0
9 | Cn1c(-c2ccc(Cl)cc2)n[nH]c1=S | -2 | -4
10 | CN(C)CC1(O)CCCN(c2ncccc2C(N)=O)CC1 (stereo not given) | 4 | 0
11 | CC(=O)c1ccc(S(=O)(=O)N2CCN(C(=O)C3(c4ccc(Br)cc4)CC3)CC2)cc1 | 3 | 11
12 | Cc1cn2c3c(=O)n(Cc4ccccc4)c(=O)n(C)c3nc2n1CCc1ccccc1 | 1 | -2
13 | C=CCNC(=O)C(NC(=O)c1ccc(F)cc1)C1CCN(C(=O)c2ccccc2OC)CC1 (stereo not given) | 0 | 6
14 | CC(C)N(CC(=O)Nc1cc(-c2ccccc2)nn1-c1ccc(Cl)c(Cl)c1)C(=O)COc1ccc(Cl)cc1 | 1 | 2
15 | C1CNC(C23CC4CC(CC(C4)C2)C3)=N1 | -3 | 3
16 | O[C@@H]1CN(c2ncnc3ccsc23)CC[C@H]1N1CCOCC1 | -10 | -10
17 | O=C(NCC(=O)N1CCN(S(=O)(=O)c2cccc(Cl)c2)CC1)C1CCCCC1 | 8 | 7
18 | Cc1ccccc1N1C(=O)/C(=C/c2cc(C)n(-c3ccc(F)cc3)c2C)C(=O)NC1=S | -2 | -2
19 | Cc1nc2c(c(N(C)Cc3sccc3C)n1)CNC2 | -4 | -5
20 | COc1ccc(C(N)=O)cc1-c1cccc(OC(C)C)c1 | 12 | 11
21 | CCOc1cccc2cc(-c3csc(NC(=O)C4CC4)n3)oc12 | 4 | 3
22 | COc1cccc(-c2cnc(-c3ccc(CNC(=O)c4cc(Cl)ccc4F)cc3)[nH]2)c1 | 19 | 24
23 | COc1ccc(-n2cccn2)c(CN2CCC(O)(CO)CC2)c1 | -7 | -13
24 | CCOc1ccccc1N1CCN(C(=O)c2ccc(Cl)cc2Cl)CC1 | 8 | 8
25 | Cc1ccc(C=NNC(=O)NC2CCCCC2)o1 | 0 | 1

# Next entries:
entry | SMILES | NPYLR7 agonist | NPYLR7 agonist max-min
26 | C=CCNC(=O)COc1cccc2c(=O)n(CCOCC)ccc12 | -1 | 19
27 | CCOC(=O)c1[nH]c2ccccc2c1NC(=O)CC(C)C | 0 | 27
28 | CC(C)CCN1CCNC(=O)C1CC(=O)NC1CCN(c2ccccc2)CC1 (stereo not given) | 23 | 14
29 | CN(CC(O)c1ccccc1)C(=O)c1cn(C(c2ccccc2)c2ccccc2)nn1 (stereo not given) | 9 | 4
30 | O=C(NNC(=O)C12CC3CC(CC(O)(C3)C1)C2)c1ccc2c(=O)n3c(nc2c1)CCC3 | 10 | 15
31 | COCc1noc(C2=Cc3cc(OC)ccc3OC2)n1 | 6 | -4
32 | CCOC(=O)c1nn(-c2ccc(F)cc2)c(=O)cc1N1CCN(c2ccccc2F)CC1 | 8 | 2
33 | O=C(/C=C/c1ccccc1)N(Cc1cccnc1)c1nc2c(F)cccc2s1 | -12 | -8
34 | Clc1ccc(Oc2nc(-c3ccncc3)nc3ccccc23)cc1 | 3 | -1
35 | O=C(c1cc2ccccn2c1)N(CC1CCCO1)c1ccncc1 (stereo not given) | -1 | -1
36 | CCCNC(=O)NC(=O)CSc1ncnc2c1cnn2-c1ccccc1 | 6 | 1
37 | CC1(C)Cc2c(sc(N)c2C#N)C(C)(C)N1 | -2 | -3
38 | CC1=CCC=CC1C(=O)NC1CCc2[nH]c3c(Cl)cccc3c2C1 (stereo not given) | 29 | 19
39 | CCC(C(=O)N1CCC(c2nc(-c3c(Cl)cccc3Cl)no2)CC1)c1ccccc1 (stereo not given) | 1 | -4
40 | COc1ccc(CNC2CCS(=O)(=O)C2)cc1 (stereo not given) | -5 | -3
41 | Cc1ccccc1C1c2ccsc2CCN1C(=O)CN(Cc1ccco1)S(=O)(=O)c1ccc(F)cc1 (stereo not given) | 6 | 15
42 | O=C(CSc1nc(=O)n(Cc2cccnc2)c2c1CCC2)N1CCCCC1 | -2 | -4
43 | OC1(c2ccc3ccccc3c2)CCN(Cc2ccccc2)C1 (stereo not given) | 4 | 2
44 | C=CCN1CC(c2nc3ccccc3n2CCOc2ccc(C)cc2)CC1=O (stereo not given) | 2 | 7
45 | COc1ccc2c3c1CN(S(=O)(=O)c1cn(C)cn1)CC3=CC(C)(C)CO2 | 4 | 7
46 | CC(=O)Nc1ccc(NC(=O)c2nnn(-c3cc(C)cc(C)c3)c2N)cc1 | 6 | 5
47 | COc1ccc(-n2ncc(Oc3ccc4c(c3)CCC4)c(Nc3cccc(C(=O)NCc4ccco4)c3)c2=O)cc1 | 12 | 14
48 | c1ccc(CN2CCCC(NCc3ccc(OC4CCCC4)cc3)C2)nc1 (stereo not given) | 4 | 0
49 | Cc1ccc2c(=O)c(C(=O)N3CCC(C)CC3)c[nH]c2n1 | -4 | -8
50 | O=c1c(Sc2ccccc2)c(O)nc(-c2ccccc2)n1-c1ccccc1 | 1 | 7

# Next part:
entry | SMILES | NPYLR7 agonist | NPYLR7 agonist max-min
51 | Oc1ccc(/C=C(/Cl)c2ncc(-c3ccc(F)cc3)o2)cc1 | 0 | -5
52 | Cc1ccc(-c2nc3n(c2CNC(=O)c2ccc(F)c(F)c2)CCS3)cc1 | 11 | 7
53 | CC(C)NC(=O)CN(C)Cc1nc2cc(F)ccc2o1 | 9 | 4
54 | O=C(NC1CCN(c2ccccc2C(=O)NCCc2cccs2)CC1)c1ccc(F)cc1 | 16 | 16
55 | COc1cc2c(cc1OC)C(c1ccccc1Cl)N(C(=O)COc1ccc(Cl)cc1)CC2 (stereo not given) | -1 | 10
56 | O=C(O)c1cc(-c2ccccc2Cl)n[nH]1 | 0 | -2
57 | Cc1nc(C(C)NC(=O)c2cccc(NCc3ccc(C)s3)c2)n[nH]1 (stereo not given) | 7 | 5
58 | NC(=O)c1cccc(CSCc2nnc(Cc3ccccc3)o2)c1 | 5 | 3
59 | C[C@@]1(C(=O)Nc2ccc(F)nc2)CCCN1c1nc(Nc2cc(C3CC3)[nH]n2)c2cccn2n1 | -12 | -15
60 | COc1cccc(C(=O)N(Cc2csc(COc3cccc(C)c3)n2)C(C)C)c1 | 16 | 16
61 | O=C(C(c1ccccc1)C1CCCCC1)N1CCCC1c1nnc2c(C(F)(F)F)cccn12 (stereo not given) | -10 | -15
62 | O=C(O)c1ccc(N2CCSCC2)c(NS(=O)(=O)c2ccc3c(c2)OCCO3)c1 | 6 | 1
63 | CCc1nnc(NC(=O)c2cc(Br)ccc2O)s1 | 4 | -1
64 | CCOC(=O)c1ccc2c(c1)nc(SCc1ccccc1C(F)(F)F)n2Cc1ccco1 | 6 | 3
65 | O=C(Cc1ccc(F)cc1)Nc1ccc(Nc2cc(-n3cccn3)ncn2)cc1 | -11 | -16
66 | CCCNC(=O)COc1ccc(-c2nc3ccccc3o2)cc1CN1CCOCC1 | 23 | 24
67 | Cc1ccc(CN2CCN(c3nccc(N4CCC(O)CC4)n3)CC2=O)cc1 | 16 | 13
68 | Cc1cc(N2CCN(c3cccc(C(F)(F)F)c3)CC2)nc(SCc2ccc(C(=O)N3CCOCC3)cc2)n1 | 3 | 16
69 | COc1cccc(F)c1-c1cc(C(=O)N2CCCC2)ccn1 | 8 | 7
70 | O=C1NC(=S)N/C1=C\c1ccc(I)o1 | -2 | -14
71 | CC(C)COc1nc(-c2ccc(C(F)(F)F)cc2)n(-c2cccc(NC(=O)c3ccco3)c2)n1 | 5 | 16
72 | COCCN(Cc1ccc(OS(C)(=O)=O)cc1)C(=O)c1c(OC)cccc1OC | -4 | -4
73 | COc1cccc(/C=C/C(=O)NCc2sccc2C)c1OC(F)F | 7 | 1
74 | O=C(O)c1ccc(S(=O)(=O)N2CCCc3ccc(F)cc32)cc1 | -3 | -4
75 | CN(Cc1ccc(Br)s1)C(=O)c1ccc(=O)[nH]n1 | 8&-18 | 7&-19

# (further entries)
entry | SMILES | NPYLR7 agonist | NPYLR7 agonist max-min
76 | Cc1ccnc(CC(C)N(C)C(=O)c2csc(C)n2)c1 (stereo not given) | 0 | 2
77 | CCS(=O)(=O)Oc1cc(CN(C(=O)Nc2ccc(F)cc2F)C(C)C)ccc1OC | 1 | 1
78 | Cc1nn(C)c(C)c1S(=O)(=O)N1CCCC(C(=O)c2cccc(C(F)(F)F)c2)C1 (stereo not given) | 4 | 3
79 | CN(C)S(=O)(=O)c1ccc(C(=O)NCCn2ncc3c(=O)n(Cc4ccc(F)cc4)cnc32)cc1 | -4 | -9
80 | COc1ccc(CC(=O)NCCN2CCN(c3nc(Cc4cccc(OC)c4)ns3)CC2)cc1 | 0 | 11
81 | O=C(Nc1ccc2[nH]cc(CCN3CCc4ccccc4C3)c2c1)c1ccccc1OC(F)(F)F | -5 | -11
82 | Cc1ccc2nc(NC(=O)CCn3c(C)csc3=O)sc2c1 | 3 | 1
83 | CC(=O)c1cccc(CN2CCCC(CCC(=O)Nc3ccccc3F)C2)c1 (stereo not given) | 4 | -1
84 | CCCCN=C1NC(=O)NC(=O)C1(CC)CC | 5 | 4
85 | NC(N)=NC(N)=NCCc1ccccc1 | -5&1 | -9&-1
86 | O=C(/C=C/c1cccc2ccccc12)Nc1nccs1 | -2 | -10
87 | O=C(Nc1ccc(N2CCN(C(=O)NCc3ccco3)CC2)nc1)c1ccccc1F | 18 | 16
88 | CC(=O)c1c(C)[nH]c(C(=O)CSc2nc(C)c(C)c(C)c2C(N)=O)c1C | 1 | 4
89 | Cc1ccc(C)c(-n2nc(-c3cccs3)cc2C(=O)O)c1 | 13 | 15
90 | CCNC(=O)C1(C)CCCN1Cc1ccc(-c2ccccc2)cc1 (stereo not given) | 2 | 0
91 | Cc1cccc(NC(=O)CCCSc2ccc(NC(=O)c3cccs3)nn2)n1 | 0 | 0
92 | CC(C)CN(CCC(=O)O)c1nc(-c2ccco2)nc2ccccc12 | -4 | 4
93 | Cc1ccc(C2=NCCCS2)cc1 | 5 | 9
94 | CC(C(=O)NCC(F)(F)F)N(C)CC1CCN(CCO)CC1 (stereo not given) | 5 | 2
95 | COc1cccc(Cn2ccnc2CNCC2CC2)c1 | 9 | 12
96 | Cc1c(O)ccc2c1O/C(=C\N1CCN(C)CC1)C2=O | -9 | -15
97 | COc1cccc(Cc2nsc(N(CCC(=O)NCC(C)C)C(C)C)n2)c1 | -9 | -4
98 | CCOc1nn(CC)cc1-c1nnc(SC)n1CC | 7 | 6
99 | CC1=C(C(=O)NCCC(C)C)C2(CCC(C)CC2)OC1=O (stereo not given) | 3 | 2
100 | N#CCc1ccc(OCCn2cc(Cl)c(=O)[nH]c2=O)cc1 | 2 | -9

# Additional structures:
entry | SMILES | NPYLR7 agonist | NPYLR7 agonist max-min
101 | O=C(c1ccccc1F)N1CCC2(CC1)OCC(C(=O)N1CCOCC1)N2C(=O)c1cccc(F)c1 (stereo not given) | -10 | -17
102 | CC12CCCCC13NC(Cl)=C(C#N)C2(C#N)C(=N)O3 (stereo not given) | 2 | 36
103 | O=C(NCCc1nc2ccccc2n1Cc1ccccc1)C1CCCCC1 | -6 | -9
104 | O=C(COCc1ccccc1)N1CCN(Cc2cccc(-c3noc(-c4cccc(C(F)(F)F)c4)n3)c2)CC1 | 31 | 20
105 | CC(C)N(C(C)C)C(C(=O)NC1CC(C)(C)N(C)C(C)(C)C1)c1ccccc1 (stereo not given) | 1 | -1
106 | O=S(=O)(NCc1ccco1)c1cccc2nsnc12 | 11 | 2
107 | CCOCCCNC(=O)c1cc(NC(=O)Nc2cccc(Cl)c2Cl)ccc1N1CCCCC1 | 18 | 20
108 | O=C(NCc1cccs1)c1cc(=O)c(OCc2ccccc2)c[nH]1 | 3 | 1
109 | CN=C1SC(CC(N)=O)C(=O)N1C (stereo not given) | 3 | 1
110 | COc1ccc(-c2csc(=Nc3ccccc3)n2C)cc1 | -7 | -12
111 | COc1ccc(NC(=O)CCN2C(=O)c3ccccc3C2=O)c(OC)c1 | 2 | -4
112 | Cc1noc(C)c1CSCC(=O)NC(C)c1ccc2ccccc2c1 (stereo not given) | 0 | -2
113 | CCOC(=O)c1c(-c2ccccc2)csc1NC(=S)NC(=O)N(C)C | -5 | -10
114 | Cc1cccn2cc(C(=O)N3CC[C@@H](c4ccc5c(c4)OCO5)[C@H](O)C3)nc12 | 3 | 3
115 | COc1ccc(C2=NN(C(=O)CN3CCN(c4ccccc4F)CC3)C(c3ccccc3C)C2)cc1 (stereo not given) | -1 | 4
116 | COc1ccc(CCN(C)c2cc(Oc3ccc(Cl)c(C)c3)ncn2)cc1OC | -7 | -1
117 | COc1cc(C(C)=O)ccc1OCC(O)Cn1cncn1 (stereo not given) | 4 | 0
118 | COc1ccccc1N1CCN(c2ccc(NC(=O)C3CCC3)cc2C(=O)NCC2CCCO2)CC1 (stereo not given) | -1 | -6
119 | O=C(c1cc(Cn2ccc3ccccc32)[nH]n1)N1Cc2ccccc2C1 | 9 | -2
120 | Cc1csc(SCc2cc(=O)c(OC(=O)c3ccccc3[N+](=O)[O-])co2)n1 | -5 | -9
121 | COC(=O)c1cccc(CSc2nc3cc(S(=O)(=O)N4CCCC4)ccc3n2CC2CCCO2)c1 (stereo not given) | 9 | 0
122 | Nc1c(C(=O)c2ccc(Br)s2)oc2ccccc12 | 10&11 | 4&10
123 | CC(C)NC(=O)Cn1ccnc1CCN1C(=O)c2ccccc2C1=O | 9 | 5
